eIF4H FP inh: inhibitors of RNA binding by human eIF4H; Q15056; eIF4H fluorescence polarization binding assay; inhibition, % at 35 µM; 290,000 tested, 0.94% active; AID 2012;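 active means 50% or more with normal probe brightness, or confirmed in later tests; about a fifth of its hits are not listed in these tables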;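 further: calls also rest on retests at 20 µM and on dose response follow-up; 0% = protein and probe with vehicle and 100% = probe without protein; strong numbers were not always called active; many hits fall short of the cut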
CSC inhib: cancer stem cell inhibition | 300,000 tested, 1.1% active | inhibition, % at 7.5 µM | cancer stem cell-like cells viability, luminescence;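 active means mean at 75% or more and at least half the replicates too; tested in HMLE shEcad cells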;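 further: 0% = median of negative and 100% = median of positive control wells; the first replicate is given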
Rce1 inh: blocks yeast Ras-converting enzyme. calls only. Q03530. yeast membranes, quenched prenylated peptide cleavage fluorescence. 290,000 tested, 0.27% active;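 active means fall in fluorescence gain of 50% or more versus controls, with final raw signal at or below 3038400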;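 further: plate controls were neutral control wells for no effect and wells lacking membranes for full effect; tested at 10 µM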
UUG fidelity: yeast start codon fidelity modulation | 350,000 tested, 0.13% active | AID 602363 | activity score, % at 18.7 µM | S. cerevisiae UUG-firefly luciferase reporter, luminescence/redox ratio;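 active means replicate mean at a twofold rise or more, about +100% in these data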;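 further: firefly luciferase made from a UUG start codon reports start codon fidelity; reporter light over untreated wells divided by growth signal over untreated wells; some hits fall short of that in this replicate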
MT1-MMP act inh: blocks activation of human MT1-MMP; HT1080 RFP-PRO-GFP cells, GFP/RFP ratio fluorescence, overnight; percent of plate control window, DMSO zero; GFP/RFP ratio change, % at 20 µM; 360,000 tested, 0.061% active; AID 651647;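 active means GFP/RFP ratio change of at least 30% with cell ATP level not reduced by more than half and red fluorescence within 50% of control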; further: strong numbers were not always called active
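Assay system: HT1080 RFP-PRO-GFP cells | Dosing: 20 µM single dose, 1% DMSO | Incubation: Cells overnight before dosing, compound overnight, 37 °C, 5% CO2 | Evaluation: GFP/RFP fluorescence ratio | Control set: DMSO-only wells and HT1080 RFP-L50D-GFP cell wells as references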
PABP FP inh: PABP-poly(A) binding inhibition; inhibition, % at 35 µM; PABP-poly(A) RNA binding, fluorescence polarization; 290,000 tested, 1% active; P11940; AID 2014;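 active means 50% or more with normal probe brightness, or confirmed in later tests; about a fifth of its hits are not listed in these tables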;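 further: calls also rest on retests at 20 µM and on dose response follow-up; controls were probe without protein and protein plus probe with vehicle; some compounds called inactive have numbers as strong as hits; many hits fall short of the cut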
Target sequence (P11940 whole entry, looked up): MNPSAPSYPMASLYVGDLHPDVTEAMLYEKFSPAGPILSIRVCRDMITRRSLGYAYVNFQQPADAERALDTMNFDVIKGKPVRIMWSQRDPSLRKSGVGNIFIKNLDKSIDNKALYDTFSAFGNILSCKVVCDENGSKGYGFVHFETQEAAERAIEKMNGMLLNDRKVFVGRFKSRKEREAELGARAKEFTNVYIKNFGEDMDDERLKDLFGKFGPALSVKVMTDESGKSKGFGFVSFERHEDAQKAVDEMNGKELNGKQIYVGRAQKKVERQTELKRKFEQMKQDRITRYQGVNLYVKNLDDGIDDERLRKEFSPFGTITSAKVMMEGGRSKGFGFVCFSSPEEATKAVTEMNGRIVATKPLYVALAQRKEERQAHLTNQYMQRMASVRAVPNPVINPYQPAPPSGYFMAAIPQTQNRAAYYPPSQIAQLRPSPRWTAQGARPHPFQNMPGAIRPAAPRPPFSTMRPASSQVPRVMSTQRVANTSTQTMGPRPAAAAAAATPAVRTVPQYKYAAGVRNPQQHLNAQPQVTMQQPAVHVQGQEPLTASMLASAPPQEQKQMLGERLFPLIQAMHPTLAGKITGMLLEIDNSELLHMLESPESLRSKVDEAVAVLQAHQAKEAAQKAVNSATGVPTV
Env fusion inh: inhibitors of HIV Env-mediated cell fusion; HeLa-JRFL Env/CEM21 cell fusion, luciferase; 360,000 tested, 1.1% active; inhibition, % at 12.3 µM; AID 651610;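 active means mean replicate inhibition score of at least 50 and every replicate individually at or above 50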;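 further: 0% = plate neutral controls and 100% = maraviroc near 300 nM; one replicate is shown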
eIF4H FP inh retest: further read-out of eIF4H FP inh, marked with its call; inhibition, %; compound at 20 µM; confirmation average;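 mean of two retest wells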
PABP FP inh retest: recorded beside PABP FP inh, whose call it bears; inhibition, %; compound at 20 µM; confirmation repeats;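 mean of two retest wells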
MT1-MMP act inh RFP: also measured in MT1-MMP act inh; calls as there; RFP signal change, %; measured here: RFP expression control read;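 0 = vehicle wells; hits needed this value within 50% of zero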
The depositor's hits bear a star; i = inactive; · = not tested or not shown; & = joins results of further samples; [ ] = dose if it differs, or a comment.

A first look, 2 compounds:
SMILES	eIF4H FP inh	CSC inhib	Rce1 inh	UUG fidelity	MT1-MMP act inh	MT1-MMP act inh RFP	PABP FP inh	Env fusion inh	others
CCC(NC(=O)Nc1ncccc1C)(C(F)(F)F)C(F)(F)F	1	-3	i	-2	6	1	-9	·
Cc1cc(C(=O)COc2ccc([N+](=O)[O-])cc2)c(C)n1C1CC1	0	0	i	-23	-1	-8	0	-24

Main list, repeating the preview:
SMILES	eIF4H FP inh	CSC inhib	Rce1 inh	UUG fidelity	MT1-MMP act inh	MT1-MMP act inh RFP	PABP FP inh	Env fusion inh	others
CCC(NC(=O)Nc1ncccc1C)(C(F)(F)F)C(F)(F)F	1	-3	i	-2	6	1	-9	·
Cc1cc(C(=O)COc2ccc([N+](=O)[O-])cc2)c(C)n1C1CC1	0	0	i	-23	-1	-8	0	-24
COc1ccccc1CNC(=O)[C@@H]1CCCN1C(=O)[C@@H]1Cc2ccccc2CN1C(=O)OC(C)(C)C	-6	7	i	·	-5	-3	1	10
C[C@@H]1NC(=O)[C@H](CCC(=O)O)NC(=O)c2cc([N+](=O)[O-])cc(F)c2NCCC[C@@H](C(N)=O)NC1=O	-7	-7	i	-8	-3	2	10	2
O=C(COc1ccc(Cl)cc1Cl)NNC(=O)c1cccnc1	7	10	i	-7	-2	2	8	-7
Cc1ccccc1[C@@]1(C)ON(c2ccccc2C(F)(F)F)C1=O	·	4	·	-19	6	2	·	-27
CN(C)c1nc(N)nc(CSc2nnnn2-c2ccc(C(=O)O)cc2)n1	-4	1	i	-19	6	7	28	4
COCCOc1ccc(C(F)(F)F)cc1NC(=O)c1ccc(C(F)(F)F)cc1	2	1	i	-6	-5	-4	-4	21
CCc1cccc(CC)c1NC(=O)/C(C#N)=C/c1ccccc1C(F)(F)F	-4	68	i	-9	-50	-36	-5	-2
O=C(CSc1ccccn1)Nc1nncs1	1	-11	i	-5	-1	-3	0	-23
Fc1ccc(-c2nc3n(n2)Cc2ccccc2-3)cc1	-8	·	i	-44	2	-1	-4	·
Cc1occc1C(=O)Nc1cccc([N+](=O)[O-])c1	-2	-15	i	·	4	-1	-2	0
CC1(CSc2ccccc2)CC(=O)N1 (stereo unspecified)	·	·	·	-18	0	3	·	4
CCC(C(=O)N1CCN(c2ncccn2)CC1)c1ccccc1 (stereo unspecified)	-1	-10	i	·	-1	1	0	7
N#Cc1cc([N+](=O)[O-])ccc1NC(=O)COC(=O)C12CC3CC(CC(C3)C1)C2	-10	24	i	·	·	·	10	·
COc1cc(OC)c(NC(=O)c2sc3ncn(CC(=O)N4CCOCC4)c(=O)c3c2C)cc1Cl	-2	-8	i	-23	7	7	14	-10
NC(Cc1ccc(F)cc1)c1csc(Nc2ccc(C(=O)c3ccccc3)cc2)n1 (stereo unspecified)	·	·	·	-12	-16	-16	·	-4
Cc1ccc(N2C(=O)CSC2c2cccs2)cc1 (stereo unspecified)	-1	-11	i	-2	2	-2	12	6
O=C(COc1ccc(Cl)cc1)Nc1nc(-c2ccncc2)cs1	2	-5	i	-13	1	3	9	-1
OCc1cccc(-c2csc(C(O)c3ccccc3)n2)c1 (stereo unspecified)	·	·	·	-17	1	-1	·	-8
Cc1n[nH]c(C)c1Sc1ccccc1[N+](=O)[O-]	-4	-9	i	·	-5	-2	-6	0
Cc1ccc(C(=O)Nc2cc(C)nn2CCC#N)cc1	-6	-5	i	-11	-2	0	-1	7
CC1(C(=O)Nc2ccc3nc[nH]c3c2)CCN1C(=O)C1(c2ccccc2)CCCC1 (stereo unspecified)	·	·	·	-23	-3	-2	·	-4
COC(=O)c1[nH]nc2c1C(=O)N(Cc1ccccc1)C2=O	4	-13	i	-22	0	2	0	·
COCCN(Cc1nc(-c2ccc(C(F)(F)F)cc2)no1)C(C)C	-10	-1	i	-4	0	-2	-3	13
COC(=O)c1cccc(S(=O)(=O)N2CCCC2)c1	-12	-9	i	-3	-1	4	0	13
O=C(Nc1ccc(F)c(S(=O)(=O)N2CCOCC2)c1)C1CCCCC1	·	·	·	-12	1	-7	·	3
O=C(NC(c1ccc2ccccc2n1)c1cccs1)C1CCN(Cc2cccc(C(F)(F)F)c2)CC1 (stereo unspecified)	·	·	·	-13	-2	-4	·	-6
COc1ccccc1Oc1ccc(NC(=O)c2ccccc2)cc1	-1	1	i	·	1	-1	-10	-10
O=C(Cc1ccc(Cl)cc1)OCC(=O)c1ccc[nH]1	·	-12	·	0	-5	5	·	·
CCOC(=O)c1ccc(-c2ccc(/C=C(\C#N)C(=O)NCc3cccs3)o2)cc1	-2	5	·	-16	0	6	-7	4
CCOCCSC1=C(C#N)C(c2cccs2)C(C(C)=O)=C(C)N1 (stereo unspecified)	-2	-17	i	-13	2	-2	2	·
COc1ccc(NC(=O)Nc2cccc3c2O[C@H](CN(C)Cc2ccc(-c4ccccc4)cc2)[C@@H](C)CN([C@H](C)CO)C3=O)cc1	·	19	·	36&-11	1	-4	·	-14[16.7 µM]
COc1cccc(CNC(=O)C2CCCN(c3ncnc4c3nc3n4CCCCC3)C2)c1 (stereo unspecified)	·	-10	i	-9	2	1	·	1
CC1(C(=O)NS(=O)(=O)C2CC2)CCN(C(=O)c2cccc(Cl)c2)C1 (stereo unspecified)	·	·	·	-15	-5	0	·	-1
COc1ccc(C(CNC(=O)c2ccc(-c3ccccc3Cl)o2)N2CCOCC2)cc1 (stereo unspecified)	·	14	i	8	-4	-7	·	8
CC(C)=CC/C=C1\CCC(C(=O)O)C(C(=O)O)C1 (stereo unspecified)	-3	·	i	-9	4	7	-7	-45
COc1ccccc1CC(=O)Nc1ccc([N+](=O)[O-])cc1OC	6	19	i	-11	-5	-6	-5	·
O=C(N/N=C/c1cn(-c2ccccc2)nc1-c1cccs1)c1ccc(Cl)cc1	4	-7	i	-3	-4	-9	9	-19
Cc1cccc(NS(=O)(=O)c2ccc(C(=O)NCC3(N4CCCCC4)CCCCC3)cc2)c1C	·	11	i	1	2	-3	·	1
CCCCn1c(NC(=O)c2ccccc2Cl)c(C#N)c2nc3ccccc3nc21	-3	59	i	-28	-131	-23	5	-7
CN(CC(=O)Nc1cccc(C#N)c1)Cc1ccc(Cl)cc1	9	-2	i	·	1	1	-1	12
CCc1nc2ccc(C(=O)NCC3CCCCC3)cn2c1N(C)Cc1ccc(OC)cc1	·	·	·	-15	-5	-14	·	22
CC(=O)c1cccc(N(C(=O)CNC(=O)c2ccco2)C(C(=O)NC2CCCC2)c2ccc(C)o2)c1 (stereo unspecified)	-1	6	i	·	-1	2	-2	9
CC(C)n1c(SCC(=O)N2c3ccccc3Sc3ccccc32)nc2c1c(=O)n(C)c(=O)n2C	5	·	i	-9	-7	5	5	-14
COc1ccc(C/C(C)=N/Nc2nc(C)cc(=O)[nH]2)cc1	-8	-11	i	-5	-1	2	-3	-1
CCc1ccc(NC(=O)CSc2nnc(SCC(=O)Nc3ccc(CC)cc3)n2N)cc1	0	-28	i	·	1	-3	-11	·
Cc1csc(NC(=O)c2cccc(S(=O)(=O)N3CCCCC3)c2)n1	-6	-8	i	-45	2	3	-2	-12
Cc1nn(-c2ccccc2)c(C)c1NC(=O)COC(=O)c1ccc(O)cc1O	-8	-7	i	-20	5	6	3	·
C=CCNC(=O)c1cc(Cl)ccc1Cl	3	-2	·	-21	5	6	-3	·
CCOC(=O)c1cnc(-c2ccccc2)nc1N1CC(C)OC(C)C1 (stereo unspecified)	-3	-3	i	·	-5	-3	2	27
CCCCN1CC[C@H]2C=CC[C@@H](C(=O)Nc3nccs3)[C@H]2C1=O	·	-7	i	-28	0	-2	·	-19
CCOC(=O)C1(C)C=C(Nc2ccc(OCC)cc2)C(=O)N1c1ccccc1 (stereo unspecified)	-11	-6	i	-4	-2	-2	51	7	eIF4H FP inh retest=-6;PABP FP inh retest=10
N#CC1(NC(=O)CSc2nnc(Nc3ccccc3F)s2)CCCC1	·	-16	·	-15	-1	4	·	2
Cc1cc2ccccc2n1CCNC(=O)c1ccc(S(=O)(=O)N2CCOCC2)cc1	28	-7	i	13	81	76	20	·
N#CC(c1ccccc1)c1ccc(C(=O)c2ccc(F)cc2)cc1 (stereo unspecified)	1	-6	i	·	-2	-22	-3	·
CC(Oc1cccc(F)c1)C(=O)Nc1ccc(N2CCOCC2)cc1 (stereo unspecified)	·	·	·	-5	-3	0	·	-8
N#Cc1cccc(NC(=O)CN2NS(=O)(=O)c3ccccc3C2=O)c1	-8	-7	i	-4	-3	6	2	·
Cn1ncc2c(N3CCN(c4ccc(Cl)c(Cl)c4)CC3)ncnc21	12	66	i	·	7	-28	9	-16
COc1cccc(C(=O)N2[C@H](COCc3ccccc3)C=CS2(=O)=O)c1	·	·	·	-3	8	5	·	-19

Further structures follow:
SMILES	eIF4H FP inh	CSC inhib	Rce1 inh	UUG fidelity	MT1-MMP act inh	MT1-MMP act inh RFP	PABP FP inh	Env fusion inh	others
CC(C)[C@H](NC(=O)c1ccco1)C(=O)OCC(=O)Nc1ccc(F)cc1	-2	8	i	·	0	3	-7	15
Cc1cc(C)c(CN2CCN(C(=O)Cn3cnc4c(OCc5ccccc5)ncnc43)CC2)c(C)c1	·	·	·	1	16	-26	·	24
Cc1ccc(-n2c(C)cc(C(=O)CSc3n[nH]c(N)n3)c2C)cc1	-3	-8	i	-21	5	-9	-4	24
Cc1ccc(SCCC(=O)N2CCC(C(N)=O)CC2)cc1	-6	0	i	-11	6	5	4	-39
O=C(CSc1nnc(CNC(=O)c2c(F)cccc2Cl)o1)NC1CCCC1	-8	4	i	-6	-3	-1	4	-2
CC1(C)NC(=O)N(CC(=O)N2CCC(Cc3ccccc3)CC2)C1=O	-9	1	i	-3	2	0	5	-4
Cc1ccc2nc(SCC(=O)Nc3ccc4c(c3)CCC4)[nH]c2c1	6	-10	i	7	0	1	6	7
O=C(NCCc1ccccc1)C1CCC(CNS(=O)(=O)c2cccs2)CC1 (stereo unspecified)	-4	-7	i	·	-1	-3	8	-20
Cc1nc2ccccn2c1/C(O)=C1\C(=O)C(=O)N(CCN2CCOCC2)C1c1cccnc1 (stereo unspecified)	20	-11	i	-7	0	7	12	·
O=C(Cn1c2ccccc2c2nc3n(c(=O)c21)CCS3)N1CCCC1	·	-6	i	8	-5	-5	·	·
Cn1c(N)c(C(=O)COC(=O)Cc2ccc(Cl)cc2)c(=O)n(C)c1=O	·	·	·	-7	3	-6	·	3
Cc1cc(C)nc(SCC(=O)Nc2nccs2)n1	1	-9	i	-20	3	8	6	0
NS(=O)(=O)c1cccc(NC(=O)CCC(=O)c2cccs2)c1	0	-3	i	-12	-2	1	-6	-2
CCOC(=O)C1CCCN(c2c(NCCCN(C)c3ccccc3)c(=O)c2=O)C1 (stereo unspecified)	6	5	i	-8	-2	5	-2	-3
FC(F)Sc1ccc(NC2=NCCCCC2)cc1	7	15	i	3	4	0	1	-7
COCc1nnc(NC(=O)CSc2ccccc2)s1	5	-9	i	-8	4	8	0	-139
COc1ccc(C(=O)N/C(=C\c2cn(S(=O)(=O)N(C)C)c3ccccc23)C(=O)NCCN2CCOCC2)cc1	-10	13	i	12	1	4	-10	-11
Cc1cc(=O)[nH]c(SCC(=O)NNC(=O)Cc2ccccc2)n1	-4	-9	i	·	-3	3	12	-1
Fc1ccc(-n2c(-c3ccco3)n[nH]c2=S)cc1	-4	9	i	-8	5	5	2	2

Three structures out of the list, arranged by heavy-atom count, descending:
SMILES	eIF4H FP inh	CSC inhib	Rce1 inh	UUG fidelity	MT1-MMP act inh	MT1-MMP act inh RFP	PABP FP inh	Env fusion inh	others
O=C(CSc1nnc(CNC(=O)c2c(F)cccc2Cl)o1)NC1CCCC1	-8	4	i	-6	-3	-1	4	-2
Cc1ccc2nc(SCC(=O)Nc3ccc4c(c3)CCC4)[nH]c2c1	6	-10	i	7	0	1	6	7
NS(=O)(=O)c1cccc(NC(=O)CCC(=O)c2cccs2)c1	0	-3	i	-12	-2	1	-6	-2

Compound activity (PubChem)
